eIF4H FP inh: human eIF4H binding inhibitors, primary screen, translation initiation inhibitor project, biochemical, uHTS, fluorescence polarization. Eukaryotic translation initiation factor 4H (Homo sapiens), Q15056. eIF4H fluorescence polarization binding assay. inhibition, % at 35 µM. 290,000 tested, 0.94% active. AID 2012, 2009;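 active = 50% or more with normal probe brightness, or confirmed in later tests; inconclusive = above 50% with abnormal brightness, or retests that disagree; inactive = below 50% or failed in later tests; about a fifth of its hits are not listed in these tables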;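 also: calls also rest on retests at 20 µM and on dose response follow-up; 0% = protein and probe with vehicle and 100% = probe without protein; strong numbers were not always called active; many hits fall short of the cut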
CSC inhib: cancer stem cell viability inhibitors, primary screen, luminescence | cancer stem cell-like cells viability | 300,000 tested, 1.1% active | inhibition, % at 7.5 µM;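 active = mean at 75% or more and at least half the replicates too; inconclusive = mean and replicates disagree; tested in HMLE shEcad cells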;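 also: 0% = median of negative and 100% = median of positive control wells; the first replicate is given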
UUG fidelity: modulators of yeast start codon fidelity, primary screen, whole organism, S. cerevisiae, single point, plate reader; S. cerevisiae UUG-firefly luciferase reporter, luminescence/redox ratio; 350,000 tested, 0.13% active; activity score, % at 18.7 µM; AID 602363, 2012;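 active = replicate mean at a twofold rise or more, about +100% in these data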;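 also: firefly luciferase made from a UUG start codon reports start codon fidelity; reporter light over untreated wells divided by growth signal over untreated wells; some hits fall short of that in this replicate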
Rce1 inhib: yeast Rce1p protease inhibitors, primary screen, biochemical, fluorescence, cell-free homogeneous | 290,000 tested, 0.27% active | CAAX prenyl protease 2 (Saccharomyces cerevisiae (strain ATCC 204508 / S288c)), Q03530 | calls only | yeast membranes, quenched prenylated peptide cleavage fluorescence;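 active = fall in fluorescence gain of 50% or more versus controls, with final raw signal at or below 3038400; inconclusive = same 50% fall but final raw signal above 3038400; inactive = fall in fluorescence gain under 50%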;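 also: plate controls were neutral control wells for no effect and wells lacking membranes for full effect; tested at 10 µM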
MT1-MMP act inh: blockers of MT1-MMP proenzyme processing, primary screen, HT1080 RFP-PRO-GFP cells, GFP/RFP fluorescence. GFP/RFP ratio fluorescence, overnight; percent of plate control window, DMSO zero. GFP/RFP ratio change, % at 20 µM. AID 651647, 2012. 360,000 tested, 0.061% active;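 active = GFP/RFP ratio change of at least 30% with cell ATP level not reduced by more than half and red fluorescence within 50% of control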; also: strong numbers were not always called active
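Assay system – RFP-PRO-GFP reporter HT1080 cells · Compound dosing – single dose of 20 µM compound, 1% DMSO final · Incubation – overnight compound exposure at 37 °C · Measure – GFP/RFP fluorescence ratio · Benchmarks – DMSO wells and RFP-L50D-GFP cells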
Env fusion inh: inhibitors of HIV-1 Env-driven cell-cell fusion, primary screen, HeLa-JRFL effector, CEM21 target cells, luciferase | 360,000 tested, 1.1% active | inhibition, % at 12.3 µM;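 active = mean replicate inhibition score of at least 50 and every replicate individually at or above 50; inconclusive = only one of the two criteria met; inactive = mean below 50 and not all replicates reaching 50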;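 also: 0% = plate neutral controls and 100% = maraviroc near 300 nM; one replicate is shown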
PABP polyA inh: PABP poly(A) RNA binding inhibitors, primary screen, biochemical, fluorescence polarization, uHTS | Polyadenylate-binding protein 1 (Homo sapiens), P11940 | inhibition, % at 35 µM | 290,000 tested, 1% active | AID 2014, 2009;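 active = 50% or more with normal probe brightness, or confirmed in later tests; inconclusive = above 50% with abnormal brightness, or retests that disagree; inactive = below 50% or failed in later tests; about a fifth of its hits are not listed in these tables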;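 also: calls also rest on retests at 20 µM and on dose response follow-up; controls were probe without protein and protein plus probe with vehicle; some compounds called inactive have numbers as strong as hits; many hits fall short of the cut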
Target sequence (P11940 whole entry, looked up): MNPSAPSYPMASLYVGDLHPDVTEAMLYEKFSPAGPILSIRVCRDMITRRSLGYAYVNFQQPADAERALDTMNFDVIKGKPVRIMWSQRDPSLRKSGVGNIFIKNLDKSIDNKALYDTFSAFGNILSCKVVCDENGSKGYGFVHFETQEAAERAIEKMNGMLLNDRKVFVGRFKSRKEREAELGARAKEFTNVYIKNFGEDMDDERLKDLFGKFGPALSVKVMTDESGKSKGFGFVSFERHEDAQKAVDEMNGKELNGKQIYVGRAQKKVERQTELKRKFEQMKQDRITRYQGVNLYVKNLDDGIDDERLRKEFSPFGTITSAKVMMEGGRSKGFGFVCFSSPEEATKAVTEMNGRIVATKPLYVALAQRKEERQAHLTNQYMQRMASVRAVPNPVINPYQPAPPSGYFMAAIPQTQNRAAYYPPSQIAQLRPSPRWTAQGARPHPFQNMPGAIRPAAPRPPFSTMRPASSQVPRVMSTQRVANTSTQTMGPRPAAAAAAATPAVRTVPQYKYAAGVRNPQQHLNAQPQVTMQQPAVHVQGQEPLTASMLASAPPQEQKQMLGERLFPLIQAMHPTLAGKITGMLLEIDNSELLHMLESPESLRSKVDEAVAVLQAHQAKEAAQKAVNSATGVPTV
eIF4H FP inh retest: second read-out of eIF4H FP inh, no call of its own (marks repeat the call); inhibition, %; compound at 20 µM; confirmation average;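 mean of two retest wells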
PABP polyA inh retest: further read-out of PABP polyA inh, marked with its call; inhibition, %; compound at 20 µM; confirmation repeats;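 mean of two retest wells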
MT1-MMP act inh RFP: further read-out of MT1-MMP act inh, marked with its call; RFP signal change, %; measured here: RFP expression control read;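 0 = vehicle wells; hits needed this value within 50% of zero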
* hit, by the source's call; i = inactive; ? = inconclusive; . = not tested or not shown; & = joins results of further samples. Only part of the results is shown. The share of hits here may be higher or lower than overall.

SMILES	eIF4H FP inh	CSC inhib	UUG fidelity	Rce1 inhib	MT1-MMP act inh	MT1-MMP act inh RFP	Env fusion inh	PABP polyA inh	others
Cc1nn(CC2CC2)c(=O)n1N(C)c1ncc(C(F)(F)F)cc1Cl	1	8	14	i	-6	-6	-14	-3
CCCNC(=O)CSc1nccn1Cc1ccco1	-8	-4	.	i	-2	2	9	3
O=C(/C=C/c1ccco1)OCC1CCCN2CCCCC12 (centres undefined)	1	15	.	i	-1	4	3	13
Cn1c(=O)cc(OCC(=O)NCc2cccs2)c2ccccc21	6	-2	-9	i	1	2	-11	2
CCCCn1nnnc1NCc1cc(OC)c(OC)c(OC)c1	-10	15	-11	i	5	2	.	1
N#CCC(=O)NC(=O)NCC1CC1	5	-2	-20	i	-6	-1	.	6
O=S(=O)(Nc1nc2ccccc2nc1Cl)c1ccccc1	1	-10	-19	i	-1	2	1	5
Cc1ccccc1CSc1nc(-c2ccccc2)cc(=O)[nH]1	3	5	-6	i	0	4	.	-2
Cc1onc(-c2ccccc2Cl)c1C(=O)N1C=CC(C(F)(F)Cl)=NCC1	-5	-14	-19	i	1	2	39	-6
COc1cc(C(=O)N2CCN(C3CCCCC3)CC2)cc(OC)c1OC	11	-8	-4	i	2	2	-1	9
O=C(Nc1ccc(Cl)cc1)Nc1nnc(CSc2ccc(Cl)cc2)s1	2	.	.	i	-10	-21	50	0
Brc1ccc(/C=N/c2nc3ccccc3n2CCN2CCOCC2)cc1	5	-6	-6	i	-2	-1	8	9
COc1ccc2c(c1)c1ncn(Cc3ccco3)c(=O)c1n2C	-1	1	-7	i	-5	-6	28	2
O=C(c1ccc(F)cc1)N(C(=O)c1ccc(F)cc1)c1ncccn1	0	0	.	i	1	6	0	0
COc1cc2nc(CC(C)C)n(NC(=O)c3ccccc3Br)c(=O)c2cc1OC	-4	0	-18	i	-3	-8	-3	-9
O=C(C1CC1)N1CCc2cc(S(=O)(=O)NC3CCN(Cc4ccccc4)CC3)ccc21	4	9	-6	i	3	-2	7	-5
CNC(=O)Oc1ccc2c(c1)[C@]1(C)CCN(C)C1N2C (some centres undefined)	.	-13&-5	-31	i	3	3	0	.
COc1cccc(-c2ncc3ccccc3c2COC(=O)c2ccc(C(C)(C)C)cc2)c1	.	24	-9	.	0	-8	31	.
Cc1ncc([N+](=O)[O-])n1CC(=O)Nc1ccccc1F	-2	-1	-15	.	2	2	-2	12
O=C(CCC(=O)N1CCN(c2ccc(C(F)(F)F)cn2)CC1)c1cccs1	.	.	-1	.	6	-5	8	.
O=C(Nc1ccc([N+](=O)[O-])cc1)N1CCc2ccccc2C1	-2	9	-16	i	11	-4	-12	-6
CC(O)CNCc1cccc2ccccc12 (centres undefined)	-6	7	-33	i	-9	-1	.	-3
COc1ccccc1CNC(=O)c1ccc2nc(C)c(N(C)Cc3ccc(NC(C)=O)cc3)n2c1	.	.	-16	.	1	3	-43	.
Cc1cc(C(=O)CSCCCn2c(=O)[nH]c3ccccc32)c(C)n1C	11	-13	-21	i	0	7	7	3
COc1ccc(-c2c(-c3cc(OC)cc(OC)c3)n(C)c3ccc(-c4cc(F)cc(OC)c4)cc23)cc1	.	?	-20	.	4	2	-2	.
O=C(COC(=O)/C=C/c1ccc(OC(F)F)cc1)NC(=O)NCc1ccccc1	.	-14	-2	.	-1	0	.	.
COc1cc(OC)cc(C(=O)NCC(=O)N2CCCCC2)c1	3	-10	-16	i	5	6	-36	0
O=S(=O)(Nc1nc2ccccc2[nH]1)c1ccc2ccccc2c1	-2	-8	-15	i	4	4	.	8
Cc1cc(C)c(NC(=O)C2CC(=O)N(c3ccc4c(c3)OCCO4)C2)c(C)c1 (centres undefined)	-5	-3	-6	i	-4	-2	16	0
COc1ccc(C)cc1NC(=O)COC(=O)C1CCN(C(=O)c2ccc(Cl)cc2)CC1	-4	-22	22	i	3	3	6	1
NS(=O)(=O)c1ccc(NC(=O)CN2CCN(S(=O)(=O)c3ccc(F)cc3)CC2)cc1	-2	-10	-7	i	0	-1	-4	7
CC(C)(C)c1ccc(C(=O)c2c[nH]c(C(=O)NCCc3ccccn3)c2)cc1	2	3	0	i	3	1	-17	-8
CCn1c(-c2ccc(N(C)C)cc2)nc2ccccc21	-3	6	-24	?	5	-14	-82	-2
O=C(Nc1ccccc1)C1CCCCC1	0	-10	-9	i	-2	2	-19	4
Nc1n[nH]c2cc(=O)n(-c3ccc(Cl)cc3)nc12	99*	1	.	i	-2	1	-6	83*	eIF4H FP inh retest=84*;PABP polyA inh retest=62*
CCN(CCn1cccn1)Cc1cn[nH]c1-c1cccc2ccccc12	38	-12	.	i	4	5	10	21
CC(C)(C)c1ccc(C(=O)N2CCC(C(=O)N3CCCCC3)CC2)cc1	-2	.	20	i	6	-1	-2	2
CCOc1ccc(C(=O)NCC(=O)NCC(c2ccco2)N2CCCCC2)cc1 (centres undefined)	.	.	-1	.	1	3	2	.
COc1ccccc1C(=O)OCC(=O)NC1CCCC1	-4	-3	-13	i	-2	0	-16	1
Cc1cc(N2CCOCC2)n2nc(C)c(-c3ccc(Cl)cc3)c2n1	3	-5	-4	i	2	-2	37	-1
COc1ccc(NS(=O)(=O)c2c(C)n(C)c(=O)n(C)c2=O)cc1	-15	-16	-6	i	1	4	.	-2
OC(CNCC#Cc1ccccc1)c1ccccc1 (centres undefined)	4	-6	-18	i	0	3	-17	-2
COc1ccc(C(=O)NC=C2C(=O)OC(C)(C)OC2=O)cc1	-5	2	.	i	-4	-1	0	-7
CCOc1ccc(-c2noc(CCC(=O)NC3CCCC3)n2)cc1OC	-7	.	-9	i	-1	-2	17	-7
CC(C)NC(=S)NN=C1CCCCCCCCCCC1	13	34	.	i	2	-5	3	-12
COc1ccc(NC(=O)c2c3c(nc4ccccc24)CCN(Cc2ccccc2)C3)c(OC)c1	5	15	-15	i	-6	-2	2	3
CC(C)c1ccc(OCC(O)CN2CCN(c3ccccn3)CC2)cc1 (centres undefined)	-9	29	-1	i	6	4	5	20
Cc1nonc1CN(C)C(=O)CC1C(=O)NCCN1Cc1cccc(C(F)(F)F)c1 (centres undefined)	4	-1	-8	i	-1	2	-7	2
O=C(O)C1=CC[C@@H](c2ccc(Cl)cc2)N(S(=O)(=O)c2ccc(Cl)cc2)[C@H]1c1ccc(Br)cc1	.	.	-4	.	0	-5	15	.
CC(C)C(=O)N1CCC1(C)C(=O)Nc1ccc(-n2cncn2)cc1 (centres undefined)	.	.	-12	.	1	4	1	.
The results go on.
SMILES	eIF4H FP inh	CSC inhib	UUG fidelity	Rce1 inhib	MT1-MMP act inh	MT1-MMP act inh RFP	Env fusion inh	PABP polyA inh	others
COc1ccc(S(=O)(=O)N2CCC(C(=O)NCCC3=CCCCC3)CC2)cc1C	4	-6	.	i	-5	-10	.	-2
Nc1ncnc2c1ncn2[C@@H]1O[C@H](C(=O)NS(=O)(=O)c2cccs2)[C@@H](O)[C@H]1O	.	.	-15	.	1	2	3	.
CCOc1ccc(C2N(c3ccc(F)cc3)C(=O)C3CCCN32)cc1 (centres undefined)	-1	-27	9	i	1	-1	16	3
CC(C)C(=O)N1CCN(c2ccccc2NC(=O)c2ccc([N+](=O)[O-])o2)CC1	1	5	9	i	3	-5	9	-3
Cc1sc2ncnc(N3CCC(C(=O)Nc4ccc(Br)cc4Br)CC3)c2c1C	.	2	-11	i	4	-4	12	.
Cc1cc(-c2ccc(C(C)C)c(S(=O)(=O)Nc3ccccn3)c2)on1	10	2	-13	i	-2	-2	-16	13
CCCCn1cnc2cc(C)c(C)cc21	7	-8	.	i	0	2	8	-5
COc1ccc(CCC(C)NCc2ccc(Cl)c(Cl)c2)cc1 (centres undefined)	-6	2	-10	i	0	-6	81*	-8
Cc1cccc(NC(=O)Nc2ccc(Cl)cc2)n1	-4	-11	-15	i	-4	-4	-28	-1
O=C(/C=C/c1c(F)cccc1Cl)Nc1ccc(S(=O)(=O)Nc2ncccn2)cc1	-2	2	-10	i	-2	-2	5	14

Reprinted from the part before: three entries; new compounds follow.
SMILES	eIF4H FP inh	CSC inhib	UUG fidelity	Rce1 inhib	MT1-MMP act inh	MT1-MMP act inh RFP	Env fusion inh	PABP polyA inh	others
COc1ccc(CCC(C)NCc2ccc(Cl)c(Cl)c2)cc1 (centres undefined)	-6	2	-10	i	0	-6	81*	-8
Cc1cccc(NC(=O)Nc2ccc(Cl)cc2)n1	-4	-11	-15	i	-4	-4	-28	-1
O=C(/C=C/c1c(F)cccc1Cl)Nc1ccc(S(=O)(=O)Nc2ncccn2)cc1	-2	2	-10	i	-2	-2	5	14
Cc1ccc(C(=O)OCC(=O)N2CCCC2)cc1	-5	0	2	i	2	6	-16	8
CN1CCN(c2ccc(-c3cc(NC=O)c4ncc(-c5ccccc5)n4c3)cc2)CC1	.	.	2	.	-11	6	-6	.
O=C(O)CN1CCc2ccccc2C1	-5	-6	-2	i	1	3	8	3
CC(C)(C)CC(C)(C)N1CNC(=S)NC1	1	-5	-22	i	5	3	-16	1
COc1cccc(NC(=O)Cc2nnc(SCC(=O)NC3CCCC3)n2C)c1	14	-2	-6	i	0	4	11	12
CC(C)c1ccc(NC(=O)C(=O)c2cn(CC(=O)N3CCCCC3)c3ccccc23)cc1	-7	-8	-7	i	-4	-11	.	2
COCc1nnc(NC(=O)CSCc2ccccc2)s1	-8	-12	-9	i	-4	0	.	1
Clc1ccccc1N1CCN(Cc2ccc(Br)o2)CC1	.	22	.	i	0	0	4	.
COc1ccc(-n2c(SCC(=O)NCc3cccs3)nnc2-c2ccoc2C)cc1	-1	-8	-6	i	4	-2	-81	-3
CC1CCCCC1NC(=O)CSc1nc2ccccc2c(=O)n1Cc1ccco1 (centres undefined)	-10	-24	.	i	4	8	.	0
CC1CCCC(C)N1C(=O)CSc1ncccn1 (centres undefined)	-2	17	-7	.	-1	1	11	0
COc1ccc(NC2CCCN(C(=O)c3cc4ncccn4n3)C2)cc1 (centres undefined)	8	-4	5	i	-1	-1	-36	2
CC12CCC(=O)N1C(C(=O)Nc1cc(C(F)(F)F)ccc1N1CCCCC1)CS2 (centres undefined)	.	5	.	i	-2	-6	.	.
CCn1nc(CC(=O)Nc2nnc(CC(=O)N3CCCC3)s2)c2ccccc2c1=O	-4	-6	-13	i	8	7	.	4
Cc1ccc(NC(=O)C(C)Sc2n[nH]c(CNc3ccccc3)n2)cc1 (centres undefined)	5	-1	-1	i	4	-1	30	-11
CCOc1cc(/C=N/N2CCN(Cc3ccccc3)CC2)ccc1O	1	-2	5	i	4	1	19	-1
CC(Sc1ccccc1)C(=O)NNC(=O)c1csc(N2CCOCC2)n1 (centres undefined)	.	-18	.	i	-3	0	14	.
CCN(CC(=O)Nc1ccc(NC(C)=O)cc1)C(=O)c1cc2ccccc2oc1=O	.	-16	0	.	3	0	-6	.
CCCOc1ccc(F)cc1-c1cc(C(=O)NCc2cc(OC)cc(OC)c2)[nH]n1	.	.	-17	.	-2	1	25	.

Source: PubChem
